Assay outcomes as filed in PubChem.
HIV Env fusion: HIV envelope-mediated fusion inhibition; AID 651610; 360,000 compounds, 1.1% hits; HeLa-JRFL Env/CEM21 cell fusion, luciferase; inhibition, % at 12.3 µM;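 active means mean replicate inhibition score of at least 50 and every replicate individually at or above 50; inconclusive means only one of the two criteria met; inactive means mean below 50 and not all replicates reaching 50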;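 further: 0% = plate neutral controls and 100% = maraviroc near 300 nM; one replicate is shown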
MT1-MMP act inh: blocks activation of human MT1-MMP | P50281 | HT1080 RFP-PRO-GFP cells, GFP/RFP ratio fluorescence, overnight; percent of plate control window, DMSO zero | GFP/RFP ratio change, % at 20 µM | 360,000 compounds, 0.061% hits;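 active means GFP/RFP ratio change of at least 30% with cell ATP level not reduced by more than half and red fluorescence within 50% of control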; further: strong numbers were not always called active
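system = RFP-PRO-GFP reporter HT1080 cells | dosing = 20 µM single dose, 1% DMSO | timing = overnight cell settling, then overnight compound exposure, 37 °C, 5% CO2 | read-out basis = GFP/RFP fluorescence ratio | controls = DMSO and RFP-L50D-GFP cell wells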
MT1-MMP act inh RFP: second read-out of MT1-MMP act inh, no call of its own (marks repeat the call); RFP signal change, %; measured here: RFP expression control read;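 0 = vehicle wells; hits needed this value within 50% of zero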
An asterisk follows results filed as active; ? = inconclusive; [ ] = dose if it differs, or a comment. Only part of the results is shown; the hit share may differ from the screen's.

SMILES	HIV Env fusion	MT1-MMP act inh	MT1-MMP act inh RFP
CCCC[C@@H]1Cc2[nH][nH]c(=O)c2[C@@H](c2ccc(Cl)cc2)O1	7	2	0
CC(NC(=O)C(Cc1ccccc1)=NO)c1ccccc1 (stereo not given)	-37	2	0
Cc1cccc(C)c1NC(=O)C1(C)CN(S(C)(=O)=O)CC(=O)N1CCc1ccc(O)cc1 (stereo not given)	-12	5	8
Cc1nc(N)sc1-c1csc(Nc2cc(N(C)C)ccc2Cl)n1	1	4	8
Cc1ccc(Cc2nc3ccccc3n2C(CCc2ccccc2)c2nc3ccccc3[nH]2)cc1 (stereo not given)	21	-3	-5
Cn1cc([C@]2(O)C(=O)Nc3cccc(Cl)c32)c2ccccc21	16	1	6
O=C1NC[C@@H](CCCCN2C[C@H](Cc3ccc(O)cc3)N(CC3CCCCC3)C(=O)C2=O)N(CCc2ccccc2)C1=O	1	5	8
CN(C)c1ccc(C=c2c3ccccc3n3c2cc(-c2ccccc2)[n+]3C)cc1	-36	10	53
OCC1OC(n2cnc3c(/C=C(\O)c4ccccc4)ncnc32)C(O)C1O (stereo not given)	55*	-5	1
Cc1ccc(SC2=C[C@@]3(O)CC[C@@H](O)[C@@](Sc4ccc(C)cc4)(C2=O)[C@H]3O)cc1	-8	4	-7
c1cnc2ccc3c(c2c1)COCO3	-5	1	-2
CN1C(=O)[C@@](O)(CC(=O)c2ccccc2)c2cc(Br)ccc21	6	1	4
CCCCN1C(=O)C(CC(=O)NCCN2CCOCC2)CC(C(=O)N2CCCCCC2)=C1C (stereo not given)	1	8	9
COc1cc(C2C3=C(COC3=O)Oc3cc4c(cc32)OCO4)ccc1O (stereo not given)	-3	19	-5
CC(C)C[C@H]1CN([C@@H](Cc2ccc(O)cc2)CN2CCC[C@H]2CN2C(=O)C(=O)NC[C@@H]2Cc2ccc(O)cc2)C(=O)C(=O)N1CCc1ccccc1	60*	-1	6
CCOC(=O)[C@]12CCCC=C1N(Cc1ccc(Cl)cc1Cl)C(=O)[C@H](CC(=O)NCCc1ccccc1OC)C2	-13	-2	-10
CCCCOCCCNC(=O)C[C@@H]1C[C@@]2(C(=O)OCC)CCCC=C2N(Cc2cccc3ccccc23)C1=O	33	1	-10
COc1ccccc1Cc1c(-c2cccc(Cl)c2)nc2c(C)cc(Br)cn12	-17	1	-1
CCOC(=O)N1CCN(C(=O)C[C@@H]2C[C@@]3(C(=O)OCC)CCC=C3N(Cc3ccco3)C2=O)CC1	-8	4	3
O=[N+]([O-])c1ccc(F)c(CN2CCN(c3ncc(Cc4ccccc4)cn3)CC2)c1	-6	-1	-11

Single entries from the list.
MT1-MMP act inh, `CN1C(=O)[C@@](O)(CC(=O)c2ccccc2)c2cc(Br)ccc21` = 1
MT1-MMP act inh, `O=[N+]([O-])c1ccc(F)c(CN2CCN(c3ncc(Cc4ccccc4)cn3)CC2)c1` = -1
MT1-MMP act inh, `COc1cc(C2C3=C(COC3=O)Oc3cc4c(cc32)OCO4)ccc1O` (stereo not given) = 19

The listing continues:
SMILES	HIV Env fusion	MT1-MMP act inh	MT1-MMP act inh RFP
CCOC1=C2CN(S(=O)(=O)c3ccc(C)cc3)C(c3ccccc3)CC2N(S(=O)(=O)c2ccccc2Cl)C(c2ccccc2)C1 (stereo not given)	32	7	-4
COc1cc2cc(C(=O)NC(C)c3cccc4ccccc34)c(N)nc2cc1OC (stereo not given)	-24	2	-4
CN(C)c1ccc2c(=O)c3ccccc3oc2n1	-92	6	-4
CCCCCCCCN1C(=O)[C@H](CC(=O)NCCCOCCCC)C[C@@]2(C(=O)OC)CCCCC=C12	30	-4	-11
CCOC(=O)/C=C1/SCC(=O)N1CC(=O)Nc1ccc2c(c1)CCC2	-23	-2	-1
O=C(COc1ccc(Cl)cc1Cl)NC1CC1	-8	3	1
O=C(NCC1CC1)c1cccs1	0	4	4
COCCNC(=O)C1(C)CCCN(Cc2cc(-c3ccccc3)on2)C1 (stereo not given)	-19	-2	1
CC1(C(=O)Nc2ccc3c(c2)OCCO3)CSCC(=O)N1CCc1ccccc1F (stereo not given)	-26	3	-1
CC1(C(=O)NS(=O)(=O)C2CC2)CCN(C(=O)c2ccccc2F)C1 (stereo not given)	16	2	2
O=c1[nH][nH]c2c1[C@H](c1ccccc1)O[C@H](C1CCCCC1)C2	4	1	0
CCCCn1nnnc1C(c1ccccc1)N1CCN(c2cccc(C(F)(F)F)n2)CC1 (stereo not given)	4	-9	-18
O=C1C=C(OCCF)CC(c2ccc(Br)cc2)O1 (stereo not given)	13	5	5
N#CC1(Nc2ccc(S(N)(=O)=O)cc2)CCCC1	15	2	0
C[C@H]1COc2cc(N(C)CCO)ccc2S(=O)(=O)N1	0	2	9
O=c1[nH]c(=O)c2[nH]c(=S)[nH]c2[nH]1	9	15	-3
Cc1csc(N=Cc2ccc([N+](=O)[O-])o2)n1	22	-13	-7
O=C(NC(Cc1ccc(O)cc1)C(=O)N=Nc1c(O)[nH]c2ccccc12)c1ccccc1 (stereo not given)	9	-3	0
CCCCOCCCNC(=O)C[C@@H]1C[C@@]2(C(=O)OCC)CCCC=C2N(CCC2=CCCCC2)C1=O	34	-5	-6
CC(C)NC(=O)N1Cc2cc(C(=O)NCC(F)(F)F)nc(-c3cccc(-c4cc5ccccc5o4)c3)c2[C@@H]1CCO	14[16.7 µM]	-10	-9
CCOc1ccccc1Nc1nnc(SCC(=O)N(C)C2CCS(=O)(=O)C2)s1 (stereo not given)	-10	-1	3
CC1(c2nc3ccccc3[nH]2)c2ccccc2C(=O)N1C1CC1 (stereo not given)	-25	3	4
Cn1nc(C(=O)NCc2ccc(F)cc2)cc1C(=O)NCc1ccc(F)cc1	0	-2	-6
Cc1cccc(C)c1-n1nnnc1C(c1ccnc2ccccc12)N1CCCC1 (stereo not given)	13	0	-1
Cc1ccc(S(=O)(=O)N2CCCCC2)cc1NC(=O)c1cncc(Br)c1	12	2	-2
C[C@H](c1ccccc1)N1C[C@@H](COCc2ccccc2)Oc2cc(N3CC[C@H](N(C)C)C3)ccc2S1(=O)=O	-22	-6	-6
CC1(C(=O)Nc2ccc3c(c2)OCCO3)CSCC(=O)N1Cc1ccco1 (stereo not given)	-16	2	3
COC(=O)[C@]12CCCCC=C1N(CCc1ccc(OC)c(OC)c1)C(=O)[C@H](CC(=O)NCC13CC4CC(CC(C4)C1)C3)C2	-32	-26	-26
CC(=O)Nc1ccccc1OCCCN1CCC(C(O)(c2ccccc2)c2ccccc2)CC1	0	5	7
CCC(C(=O)Nc1c(C)cccc1C)n1c(-c2ccc(-c3ccccc3)cc2)nc2ccccc21 (stereo not given)	-41	-2	-2

Reprinted from above for reference:
SMILES	HIV Env fusion	MT1-MMP act inh	MT1-MMP act inh RFP
CC1(C(=O)Nc2ccc3c(c2)OCCO3)CSCC(=O)N1Cc1ccco1 (stereo not given)	-16	2	3
COC(=O)[C@]12CCCCC=C1N(CCc1ccc(OC)c(OC)c1)C(=O)[C@H](CC(=O)NCC13CC4CC(CC(C4)C1)C3)C2	-32	-26	-26

The main list resumes with the seven entries that preceded the break.
SMILES	HIV Env fusion	MT1-MMP act inh	MT1-MMP act inh RFP
Cc1cccc(C)c1-n1nnnc1C(c1ccnc2ccccc12)N1CCCC1 (stereo not given)	13	0	-1
Cc1ccc(S(=O)(=O)N2CCCCC2)cc1NC(=O)c1cncc(Br)c1	12	2	-2
C[C@H](c1ccccc1)N1C[C@@H](COCc2ccccc2)Oc2cc(N3CC[C@H](N(C)C)C3)ccc2S1(=O)=O	-22	-6	-6
CC1(C(=O)Nc2ccc3c(c2)OCCO3)CSCC(=O)N1Cc1ccco1 (stereo not given)	-16	2	3
COC(=O)[C@]12CCCCC=C1N(CCc1ccc(OC)c(OC)c1)C(=O)[C@H](CC(=O)NCC13CC4CC(CC(C4)C1)C3)C2	-32	-26	-26
CC(=O)Nc1ccccc1OCCCN1CCC(C(O)(c2ccccc2)c2ccccc2)CC1	0	5	7
CCC(C(=O)Nc1c(C)cccc1C)n1c(-c2ccc(-c3ccccc3)cc2)nc2ccccc21 (stereo not given)	-41	-2	-2
O=C(c1cc2c(c(-c3cccc(-c4ccncc4)c3)n1)[C@@H](CCO)N(C(=O)c1ccc3c(c1)OCO3)C2)N1CCOCC1	5	2	3
CCOC(=O)C1=C(Nc2ccccc2)CSC1	11	-3	3
CC(C)C[C@H]1CN(CCCC[C@@H]2CNC(=O)C(=O)N2CC2CCCCC2)C(=O)C(=O)N1CC1CCCCC1	-89	4	3
CCOC(=O)c1cc2c(OC)c(OC)ccc2c2[nH]cc(C#N)c(=O)c12	-8	3	0
O=S1(=O)CCN(C2CCCCCCCCCCC2)CC1	32	1	-19
O=C(COc1ccccc1)NC(=S)Nc1cccc2c(O)cccc12	-39	2	-1
COc1ccc(C2NCCCC2c2ccccc2)cc1 (stereo not given)	-20	-1	1
Cc1ccc(S(=O)(=O)N2CC3(O)CN(C(=O)OC(C)C)N(C(=O)OC(C)C)CC3(OC(=O)NC3CC3)C2)cc1 (stereo not given)	-13	7	5
Cc1ccc(S(=O)(=O)N2[C@@H](Cc3ccccc3)CO[C@H]2CC(=O)c2ccccc2)cc1	-2	-3	0
Cc1cc2c(cc1C)-n1nnnc1C(N1CCN(CC(=O)NC(C)C)CC1)C(=O)N2 (stereo not given)	-11	2	7

Marked active in HIV Env fusion, of those listed so far:
SMILES	HIV Env fusion	MT1-MMP act inh	MT1-MMP act inh RFP
OCC1OC(n2cnc3c(/C=C(\O)c4ccccc4)ncnc32)C(O)C1O (stereo not given)	55*	-5	1
CC(C)C[C@H]1CN([C@@H](Cc2ccc(O)cc2)CN2CCC[C@H]2CN2C(=O)C(=O)NC[C@@H]2Cc2ccc(O)cc2)C(=O)C(=O)N1CCc1ccccc1	60*	-1	6

(list continues)
SMILES	HIV Env fusion	MT1-MMP act inh	MT1-MMP act inh RFP
Cc1ccc(-c2nc3ncccn3c2N)cc1	-10	1	5
COCCNC(=O)c1cc2c(Br)ccc(Br)c2nc1N	-9	0	1
CCCCCCCCN1C(=O)[C@H](CC(=O)NCCCC)C[C@@]2(C(=O)OC)CCCCC=C12	?	1	-9
Nc1ccc(S(=O)(=O)NN=CC=Cc2ccccc2[N+](=O)[O-])cc1	4	-10	2
N#Cc1c(N2CCN(c3ccc([N+](=O)[O-])cc3)CC2)[n+](=O)c2ccc(Cl)cc2n1[O-]	18	-33	-26
COc1ccc(S(=O)(=O)N2CCC[C@H]2C(=O)N2CCC[C@H]2C(=O)NCc2ccccc2)cc1C	-10	7	2
Cc1cc(Br)c2nc(-c3ccccc3)c(Cc3cccc(Cl)c3)n2c1	15	2	1
CSc1nc(N)nc2c1ncn2C1OC(CO)CC1O (stereo not given)	1	3	3
CCc1nc(N)nc(N)c1-c1ccc(N(C)Cc2ccccc2)c([N+](=O)[O-])c1	20	-12	-26
CCCCNC(=O)C[C@@H]1C[C@@]2(C(=O)OC)CC(C)(C)CC=C2N(Cc2ccccc2)C1=O	4	3	0
O=[N+]([O-])c1ccc(NN=CC2CCCCCC2)c([N+](=O)[O-])c1	-15	10	5
O=C1CCn2c1c(O)c1ccccc1c2=O	-6	-37	2
O=C1CC(c2ccccc2)Oc2ccc(Cl)cc21 (stereo not given)	-11	3	1
CCCCSc1nc2c([nH]1)c(=S)n(C)c(=O)n2C	-32	11	-12
O=c1[nH]c(=O)n(CCCc2ccccc2)cc1-c1ccccc1	-1	2	-2
COC(=O)c1ccc2nc(-c3cccc(Cl)c3)c(Cc3cccc(Cl)c3)n2c1	0	-3	-16
COc1ccc(-c2nc3c(Cl)cc(C(F)(F)F)cn3c2Cc2ccccc2C(F)(F)F)cc1OC	1	1	3
C=CCC[C@@H](CCCCC)OC(=O)/C=C/[C@@H](O)[C@H](O)C[C@@H](O)CC=C	10	7	-11
